Biofilm kill mix: mixture kills Candida albicans biofilm cells; C. albicans biofilm persisters + clotrimazole, fluorescence viability; primary screen in compound mixtures of four per well; inhibition, % at 7.6 µM; hit rate 0.02% among 120,000;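 active = inhibition above 30.3% in the primary screen of four-compound pools, then above 30% when the compound was retested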;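 note: compounds exposed to preformed 24 h biofilms for 48 h; the number belongs to the whole pool; some results filed as inactive read as strong as hits; inactives centre near 12; 0% = biofilm with clotrimazole alone and 100% = kill control; retested singly at about 60 µM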
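Incubation: 24 h biofilm formation, then 48 h compound exposure, 37 °C | Material: C. albicans biofilms | Buffer or medium: RPMI/MOPS medium, pH 7.0 | Measured by: 2-h Alamar Blue fluorescence, 535/590 nm excitation/emission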
* = called active by the depositor. Not all compounds are listed; count on the stated rates, not on these rows.

Compound	Biofilm kill mix
Cc1nn(C)c(C)c1C1C(C#N)=C(N)OC2=C1C(=O)CC(C)(C)C2 (configuration not stated)	9
COc1cc(/C=C/C(=O)c2ccccc2O)cc(OC)c1OC	1
Cn1ccnc1Sc1cc(Cl)ccc1[N+](=O)[O-]	22
O=C(NC(=S)Nc1cccc(Cl)c1N1CCOCC1)c1cccs1	15
O=S(=O)([N-]c1nc2ccccc2nc1-[n+]1ccc(CCCc2ccccc2)cc1)c1cccs1	19
O=C1CN(C(=O)COC(=O)/C=C/c2ccc(S(=O)(=O)N3CCOCC3)cc2)c2ccccc2N1	2
CCc1ccc(OCC(=O)NN2Cc3ccccc3C2=N)cc1	15
COc1ccccc1Nc1nc2nonc2nc1N1CCCCC1C (configuration not stated)	14
COc1ccc(OCC(=O)Nc2ccncc2)cc1	10
CCOc1ccc(CC(=O)NCC2(N3CCCCC3)CCCCC2)cc1	6
CN(CCOC(=O)c1ccccc1)Cc1ccccc1	12
CCN(Cc1ccccc1)c1ccc(/C=N/NC(=O)c2cccc(S(=O)(=O)N3CCOCC3)c2)cc1	7

Next compounds:
Compound	Biofilm kill mix
CCOC(=O)C1CCCN(CC(O)COCc2ccc3c(c2)OCO3)C1 (configuration not stated)	15
O=C1c2ccccc2C(=O)N1CCc1c[nH]c2ccc(O)cc12	25
COc1ccc(C2Nc3ccccc3C(=O)N2Cc2ccco2)cc1COc1ccc(F)cc1 (configuration not stated)	16
N#CCSc1ncnc2ccccc12	16
CCOCc1nnc(NC(=O)c2ccc(NC(C)=O)cc2)s1	0
CC(NC(=O)c1ccc2c(c1)OCCO2)c1ccc(S(N)(=O)=O)cc1 (configuration not stated)	13
COc1ccc(-n2nc(C(=O)Nc3nc4ccc(OC)cc4s3)c3ccccc3c2=O)c(OC)c1	11
CCCCOC(=O)N1CCOCCOCCOCCOCC1	14
O=C(N/N=C/c1ccc(N2CCCC2)c([N+](=O)[O-])c1)c1cccnc1	4
CCN(CC)S(=O)(=O)c1ccc(C(=O)Nc2nnc(-c3ccco3)o2)cc1	13
O=C(Cn1nnc(-c2cccs2)n1)NCc1ccccc1	14
O=C(O)CC1(CC(=O)NCc2ccccn2)CCCCC1	18

As entered above.
O=C(Cn1nnc(-c2cccs2)n1)NCc1ccccc1 | Biofilm kill mix: 14
CCN(CC)S(=O)(=O)c1ccc(C(=O)Nc2nnc(-c3ccco3)o2)cc1 | Biofilm kill mix: 13

More structures
Compound	Biofilm kill mix
CNc1nnc(CSc2nc3ccccc3s2)s1	-9
Cc1ccc(OCC(O)Cn2c(N)nc3c2c(=O)n(C)c(=O)n3C)cc1 (configuration not stated)	9
Cc1nc2c(ncn2-c2ccccc2)c(=O)n1NC(=O)CN1CCCC1	16
Cn1cccc1-c1cc(C(=O)N/N=C/c2cccc(O)c2)[nH]n1	17
Cn1c(N2CCN(S(=O)(=O)c3ccc(F)cc3)CC2)nc2ccccc21	8
Cc1cc(NC(=O)CSc2nc(N)c(NC(=O)c3ccccc3)c(=O)[nH]2)no1	13
O=C(/C=C/c1ccc(Cl)cc1)NC(=S)NN1CCCCC1c1cccnc1 (configuration not stated)	2
O=C(c1ccc2c(=O)n3c(nc2c1)CCCCC3)N1CCN(c2ccccc2)CC1	8
CCC(C)(C)NC(=O)Cc1ccc(F)cc1	43
CC1(C)C2CC=C(/C=N/NC(=S)Nc3cccnc3)C1C2 (configuration not stated)	8
CC(C)C[C@@H](CSc1ccc(Br)cc1)N1CCN(C)CCC1=O	16
COc1ccc(CCN2C(=O)CN(Cc3ccccc3)CC2=O)cc1OC	-8

Remaining list, next part:
Compound	Biofilm kill mix
COC(=O)CSC1=C(C#N)C(c2ccccc2F)CC(=O)N1 (configuration not stated)	7
O=C(NCC(O)COc1ccc([N+](=O)[O-])cc1)Nc1ccccc1 (configuration not stated)	30
CCC(=O)N(Cc1cc2ccccc2[nH]c1=O)c1ccc(OC)cc1	6
Cc1nn(CCCC(=O)Nc2ccccn2)c(C)c1[N+](=O)[O-]	10
Cc1c(N=Nc2ccc(N(C)C)cc2)c(=O)n(-c2ccccc2)n1C	15
COCCNC(=S)N(CCc1c(C)[nH]c2ccc(C)cc12)Cc1cc(OC)c(OC)c(OC)c1	13
CC(Sc1ccsc1[N+](=O)[O-])C(=O)NCc1ccccc1 (configuration not stated)	14
C[C@H](NS(=O)(=O)c1ccc(Cl)c(Cl)c1)C(=O)OCc1cc(=O)n2cc(Br)ccc2n1	21
CN(Cc1nc2ccccc2c(=O)[nH]1)c1ccccc1	8
Cc1ccc(-c2cc(C(=O)Nc3ccc(S(=O)(=O)Nc4onc(C)c4C)cc3)c3ccccc3n2)cc1	19
CC(=O)Nc1c([N+](=O)[O-])cc2[nH]c(=O)[nH]c2c1[N+](=O)[O-]	33
Cc1cc(=O)oc2c1c(C)nn2-c1cccc(Cl)c1	13

Further structures follow.
Compound	Biofilm kill mix
CCOC(=O)N1CCC(NC(=O)C(NS(=O)(=O)c2cccc3nsnc23)c2ccccc2)CC1 (configuration not stated)	4
COc1ccc(C(=O)NC(=S)NCC2CCCO2)cc1 (configuration not stated)	17
c1ccc(CSc2nc3ccccc3[nH]2)cc1	1
O=C(Nc1ccc(F)cc1)C(Cc1ccccc1)n1cccc1 (configuration not stated)	24
CC(C)[C@H](NC(=O)c1ccco1)C(=O)OCC(=O)N(C)c1ccccc1	25
O=S(=O)(c1ccc(F)cc1)N1CCC2(CC1)OCCO2	7
CC(Oc1ccc(Cl)cc1)C(=O)NNC(=S)NC(=O)c1ccco1 (configuration not stated)	5
CC(C)Oc1ccc(CCc2nnc(SCC(=O)O)n2-c2ccccc2)cc1	5
Cc1cccc(Cc2nnc(CCC(=O)N3CCCC(CN4CCOCC4)C3)o2)c1 (configuration not stated)	3
Cc1cc(C)n(Cc2ccc(C(=O)Nc3cccc(Br)c3)o2)n1	14
O=C(Nc1cccc(-c2csc(Nc3cccc(C(F)(F)F)c3)n2)c1)c1ccccc1	11
OCC1CCCCN1CCNCc1cn[nH]c1-c1cccc2ccccc12 (configuration not stated)	22

(list continues)
Compound	Biofilm kill mix
O=c1[nH][nH]c(=O)c2c(NS(=O)(=O)c3ccccc3)cccc12	16
O=C(CCc1nnc(CCCCc2ccccc2)o1)NCc1cc(F)ccc1F	32
COc1ccc(CCNC(=O)COC(=O)CCC(=O)c2ccc(F)cc2)cc1OC	12
CC(=O)Nc1cc([N+](=O)[O-])ccc1N1CCOCC1	-4
O=[N+]([O-])c1cccc(N/N=C/c2cc([N+](=O)[O-])ccc2O)c1	14
Cc1csc(NC(=O)CCc2c(C)nc3cc(-c4cccc(F)c4)nn3c2C)n1	19
CCOC(=O)C1=C(C)Nc2nnnn2C1c1ccccc1Cl (configuration not stated)	20
O=C(NN1C(=O)C2C(c3ccccc3)C=CC(c3ccccc3)C2C1=O)c1cccc(Br)c1 (configuration not stated)	14
O=c1[nH]cnc2sc3c(c12)CCC3	26
COc1ccc(NC(=O)COC(=O)C(CC(C)C)N2C(=O)C3CC=CCC3C2=O)cc1Cl (configuration not stated)	9
CC(C)CNC(=O)c1ccc(Cl)c(NC(=O)COc2ccccc2)c1	30
O=C(CCl)N(c1ccccc1)c1ccccc1	12

Going on with the list:
Compound	Biofilm kill mix
CCOC(=O)N1CCN(c2cc(=O)n(-c3ccccc3C)c(=O)[nH]2)CC1	18
O=C(NC(=S)Nc1ccc2oc(=O)ccc2c1)c1ccc(-c2cccc(Cl)c2Cl)o1	13
Oc1c(I)cc(I)c2cccnc12	3
O=C(Cn1nnc(-c2ccccc2Cl)n1)N/N=C/c1ccc(-c2cccc(Cl)c2)o1	15
COc1ccc(OC)c(C(=O)COC(=O)CNC(=O)c2ccccc2)c1	6
CCc1c(C)[nH]n(-c2nc(-c3ccccc3)cs2)c1=O	7
COc1ccc(CN(C)c2nc(-c3cccnc3)nc3ccccc23)cc1OC	8
Cc1ccc(NC(=O)CN(C)CC(=O)Nc2ccccc2Oc2ccccc2)cc1	11
COc1cccc(-c2cc(=O)c3cc(NC(=O)c4ccc(N(C)C)cc4)ccc3[nH]2)c1	13
O=C(NC1C(=O)NNC1c1ccc(Cl)cc1)c1ccc(F)cc1 (configuration not stated)	50
CCCSc1nnc(NC(=O)Nc2ccccc2)s1	7
CC(=O)NC(=S)NNC(=O)c1ccc(Br)cc1	11

2 records drawn at random from the list so far, as already listed:
Compound	Biofilm kill mix
CC(=O)NC(=S)NNC(=O)c1ccc(Br)cc1	11
Cc1ccc(NC(=O)CN(C)CC(=O)Nc2ccccc2Oc2ccccc2)cc1	11

(further entries)
Compound	Biofilm kill mix
O=C(O)CC(NS(=O)(=O)c1c(F)cc(F)cc1Br)c1ccccc1Cl (configuration not stated)	14
CN(C)c1ccc(C(=O)Nc2ccc(O)c3c(=O)cc(-c4ccccc4Cl)oc23)cc1	8
OCCC1CN(Cc2ccc(-n3cccn3)cc2)CCN1Cc1ccccc1 (configuration not stated)	0
Cc1cccc(Nc2c3c(nc4ccccc24)CCC3)c1	31
CCOC(=O)C/C(C)=N\Nc1nc(-c2ccccc2)cs1	18
S=C(Nc1ccccc1)Nc1ccc(Br)cn1	4
CCN(Cc1ccccc1)S(=O)(=O)c1cc(C(=O)NC2CCCCCC2)ccc1OC	14
COCC(C)n1c(SCc2ccc(OC)c(F)c2)nc2ccccc2c1=O (configuration not stated)	12
O=C(COC(=O)c1ccc[nH]c1=O)NCCc1ccc(Cl)cc1Cl	8
O=C(CN1CCCCC1)Nc1cccc(Cl)c1	14
O=c1[nH]c(=O)n(-c2ccc(F)cc2)c2c1C(C(F)(F)F)(C(F)(F)F)N=C(c1ccc(F)cc1)N2	17
CCCCN(C)C(=O)c1nc2ccccn2c1CNCCCn1ncc2ccccc21	25

A draw from above in order of formula weight, high to low.
Compound	Biofilm kill mix
COCC(C)n1c(SCc2ccc(OC)c(F)c2)nc2ccccc2c1=O (configuration not stated)	12
S=C(Nc1ccccc1)Nc1ccc(Br)cn1	4
CCOC(=O)C/C(C)=N\Nc1nc(-c2ccccc2)cs1	18

Grouped by structure, the entries above with a thiophene ring, fused or not (five)
Compound	Biofilm kill mix
O=C(NC(=S)Nc1cccc(Cl)c1N1CCOCC1)c1cccs1	15
O=S(=O)([N-]c1nc2ccccc2nc1-[n+]1ccc(CCCc2ccccc2)cc1)c1cccs1	19
O=C(Cn1nnc(-c2cccs2)n1)NCc1ccccc1	14
CC(Sc1ccsc1[N+](=O)[O-])C(=O)NCc1ccccc1 (configuration not stated)	14
O=c1[nH]cnc2sc3c(c12)CCC3	26

Next part.
Compound	Biofilm kill mix
CCOC(=O)/C(N=Nc1sc(C(=O)OCC)c(C)c1C(=O)OCC)=C(\C)O	16
Cc1nn(Cc2ccccc2)c(Cl)c1C(=O)NCc1ccco1	-3
CCCC(=O)n1nc(NCc2ccc(OC)cc2)nc1NCc1ccc(OC)cc1	5
CCOC(=O)C/C(C)=N/NC(=O)C1CC1(c1ccccc1)c1ccccc1 (configuration not stated)	11
Cc1cc(C)c(NC(=S)N(CCc2ccncc2)C(C)C)c(C)c1	6
CNC(=S)Nc1ccc(OCc2ccccc2)cc1	11
COc1ccc(NC(=S)N2CCCN(Cc3cccc(Cl)c3)C2)cc1	9
O=C(c1ccc(NC(=S)Nc2ccc(Cl)c(Cl)c2)cc1)N1CCCC1	25
CCONC(=O)Nc1ccccc1[N+](=O)[O-]	-11
Cc1[nH]n(-c2ccc([N+](=O)[O-])cc2)c(=O)c1C=NCCc1c[nH]c2ccccc12	21
NS(=O)(=O)c1ccc(CCNc2nc3c(-c4cccc(F)c4)nnn3c3ccccc23)cc1	12
NC(=O)C12CCCC(Br)(CCC1)C2	26

Further compounds follow.
Compound	Biofilm kill mix
Cc1ccc(C(=O)OCC(=O)Nc2cc(S(=O)(=O)N3CCOCC3)ccc2C)cc1	13
COc1ccc(C(=O)/C=C/c2ccc(OC)c(O)c2)c(F)c1	20
CC1CN(C(=O)c2cccc(S(=O)(=O)Nc3cc(Cl)ccc3Cl)c2)CC(C)O1 (configuration not stated)	24
CC/C(O)=C1\C(=O)CC(c2ccccc2)CC1=NC(C)C (configuration not stated)	0
CCN(C(=O)c1ccc(Br)cc1)c1ccccc1	-4
CC(OC(=O)c1nc(-c2ccccc2)n(-c2ccccc2)n1)C(=O)Nc1cc(Cl)cc(Cl)c1 (configuration not stated)	-6
Cc1ccc(C)c(N(CC(=O)NC(C)(C)C)C(=O)CNC(=O)c2cccs2)c1	-2
O=C(CC1C(=O)NCCN1CC1CCCCC1)NC1(c2ccccc2)CC1 (configuration not stated)	11
O=C(c1cccs1)N1N=C(c2ccccc2)CC1c1ccc(O)cc1 (configuration not stated)	11
Clc1ccc(COc2ccccc2-c2ccnc3ncnn23)cc1	4
CCS(=O)(=O)N1Cc2ccccc2CC1C(=O)Nc1ccc(F)cc1 (configuration not stated)	12
Cc1ccc(N=CC=C2OC(C)(C)C(C)(C)O2)cc1	11

Next section.
Compound	Biofilm kill mix
Cc1cnc(C(=O)OCC(=O)Nc2ccc(C)c(S(=O)(=O)N3CCCCCC3)c2)cn1	15
COc1ccc(S(=O)(=O)n2nc(OC(=O)c3ccncc3)cc2N)cc1	21
Cc1cc(SCC(=O)N(C)c2c(N)n(Cc3ccccc3)c(=O)[nH]c2=O)nc2ccccc12	12
CCC(=O)c1ccc2ncccc2c1	8
Cc1ccc(C(=O)NC2c3ccccc3-c3ccccc32)cc1	2
O=C(O)CC(CCc1ccccc1)OC1OC(CO)C(O)C(O)C1O (configuration not stated)	13
Cc1ccc(NC(=O)c2ccc3nc[nH]c3c2)c(O)c1	24
